Sfp inh: Sfp phosphopantetheinyl transferase inhibition; Q9F4F7; Potency, µM, for inactives: max response, negative = inhibition, actives largely listed as inhibitors; 3.5% of 310,000 active; Biochemical Sfp PPTase activity, qHTS; AID 1490; active = well fitted inhibition curve with a large enough effect; inconclusive = small, poorly fitted or top-dose-only effect, or another doubt; inactive = no such curve, though single readings can be large or run the other way;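 also: the enzyme is Sfp with the accession as filed and its product quenches rhodamine fluorescence; potency is read from the fitted curve at half-maximal effect; 0% = enzyme reaction without inhibitor and -100% = no enzyme wells; top concentration of the series not given in the record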
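After 15 min at room temperature with compound, 15 nM Sfp received 5 uM rhodamine-CoA plus 12.5 uM BHQ-2-ybbR (50 mM Hepes pH 7.6, 10 mM MgCl2). Rate came from the fluorescence difference over 30 min, ex 525/em 598 nm.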
Menin-MLL FL inh: displaces fluorescein MLL peptide from human menin. Fluorescence polarization, fluorescein-MLL peptide displacement from menin. FP activity change, % at 61.4 µM. 290,000 tested, under 10 active. AID 1766; inconclusive = falling polarisation curve, or a change in total fluorescence; inactive = total fluorescence flat and polarisation flat or rising; no compound was filed as active; the % refers to the polarisation; negative = inhibition;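 also: % of control where 0% means no effect; inhibitors lower the polarisation; unlabelled MLL peptide was the positive control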
gsp ag: agonists of gsp mutant (McCune-Albright syndrome); gsp mutant cells, cAMP HTRF, 30 min; control for the full effect not named in the record; Potency, µM (highest dose often 76.9 µM), for inactives: top-dose activation (cAMP increase), hits mostly activators; 0.13% of 340,000 active; active = well fitted activation curve with a large enough effect; inconclusive = small, poorly fitted or top-dose-only effect, or another doubt; inactive = no such curve, though single readings can be large or run the other way; cell line not stated here;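 also: phosphodiesterase inhibitor Ro 20-1724 added with compounds to block cAMP breakdown; potency is read from the fitted curve at half-maximal effect; nearly all actives have a fitted effect of over 60% in size; about a fifth of the inactives were tested at one dose only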
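Cells stably selected in G418 were plated at 2000/well, grown 16-24 hr, then given compounds in DMSO with the PDE inhibitor […] (300 uM solution added) for 30 min at 37C; cAMP was read by HTRF.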
ClpP mod: qHTS Assay for Activators of ClpP; purified B. subtilis ClpP, FRET peptide cleavage, 20 min; ATP-dependent Clp protease proteolytic subunit (Bacillus subtilis (strain 168)), P80244; AID 651965, 2013; Potency, µM (doses to about 57.5 µM), without a hit: at the top dose activity change, negative = active; 1.9% of 340,000 active; active = well fitted falling curve with a large enough effect; inconclusive = small, poorly fitted or top-dose-only effect; inactive = no such curve, though single readings can be large or run the other way; also: potency is read from the fitted curve at half-maximal effect; the source files actives as falling curves though it sought activators and does not explain the sign; nearly all actives have a fitted effect of over 65% in size; many hits overshoot -100%
Target sequence (P80244 whole entry, looked up): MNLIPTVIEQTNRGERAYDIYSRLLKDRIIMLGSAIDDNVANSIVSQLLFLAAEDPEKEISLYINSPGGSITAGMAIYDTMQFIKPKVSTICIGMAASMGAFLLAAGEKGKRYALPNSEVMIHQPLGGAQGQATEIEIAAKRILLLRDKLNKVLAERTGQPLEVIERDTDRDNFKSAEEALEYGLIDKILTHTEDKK
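Purified B. subtilis ClpP, 10 microg/mL final in Tris/HCl pH8 with KCl, BSA, glycerol and Tween-20, cleaved an Abz/nitrotyrosine-quenched decapeptide. Fluorescence (ex 320, em 430) was read at 0 and 20 min at room temperature. Delta was normalized to 5.8 microM ADEP and DMSO/no-enzyme controls.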
CtBP-E1A inh: CtBP/E1A binding inhibition | AlphaScreen GST-E1A/His-CtBP binding, 1536-well; hits give low values; control for the full effect not named in the record | activity change, % (concentration not given with the values) | 0.49% of 340,000 active | AID 651724; in the data active means activity change below about -65%; inconclusive means about -30% to -65%; inactive means above about -30%; also: % is scaled to controls: 0 for no effect and ±100 for the full control effect
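AlphaScreen with 125 nM GST-E1A and 125 nM His-CtBP (5X stocks) in Tris pH 8.0, 300 mM NaCl, BSA, Tween 20, TCEP. Compounds preincubated 2 h at 37 deg C, then glutathione donor/nickel acceptor beads added for 1 h at 37 deg C in dark.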
gsp antagonist: antagonizes gsp, the McCune-Albright syndrome mutation | gsp-mutant cells, cAMP HTRF, 30 min; control for the full effect not named in the record | Potency, µM (highest dose often 76.9 µM), inactives show top-dose activity change, negative = inhibition, most hits filed as inhibitors | 0.4% of 340,000 active; active = falling curve of any shape with a large fitted effect; inconclusive = falling curve, mostly with a smaller effect; inactive = flat or rising curve; cell line not stated here;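 also: intracellular cAMP measured with PDE inhibitor Ro 20-1724 present during compound exposure; potency is read from the fitted curve at half-maximal effect; % is scaled to controls: 0 for no effect and ±100 for the full control effect; nearly all actives have a fitted effect of over 65% in size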
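HTRF cAMP read-out (cAMP-d2 plus anti-cAMP antibody-K in lysis buffer, 30 min RT). Before lysis, cells are exposed to compounds with […] for 30 min at 37C in DPBS containing Ca/Mg, BSA and Tween 20.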
TRPV1 PAM: human TRPV1 potentiation | potentiation, % at 8.33 µM | TRPV1-expressing cells, Fluo-8 calcium influx, capsaicin EC20 potentiation; host cell line not named in the record; control for the full effect not named in the record | Q8NER1 | 0.02% of 320,000 active; active means potentiation above 80%; inconclusive means 30% to 80%; inactive means below 30%; also: 0% is about no effect
Target sequence (Q8NER1 whole entry, looked up): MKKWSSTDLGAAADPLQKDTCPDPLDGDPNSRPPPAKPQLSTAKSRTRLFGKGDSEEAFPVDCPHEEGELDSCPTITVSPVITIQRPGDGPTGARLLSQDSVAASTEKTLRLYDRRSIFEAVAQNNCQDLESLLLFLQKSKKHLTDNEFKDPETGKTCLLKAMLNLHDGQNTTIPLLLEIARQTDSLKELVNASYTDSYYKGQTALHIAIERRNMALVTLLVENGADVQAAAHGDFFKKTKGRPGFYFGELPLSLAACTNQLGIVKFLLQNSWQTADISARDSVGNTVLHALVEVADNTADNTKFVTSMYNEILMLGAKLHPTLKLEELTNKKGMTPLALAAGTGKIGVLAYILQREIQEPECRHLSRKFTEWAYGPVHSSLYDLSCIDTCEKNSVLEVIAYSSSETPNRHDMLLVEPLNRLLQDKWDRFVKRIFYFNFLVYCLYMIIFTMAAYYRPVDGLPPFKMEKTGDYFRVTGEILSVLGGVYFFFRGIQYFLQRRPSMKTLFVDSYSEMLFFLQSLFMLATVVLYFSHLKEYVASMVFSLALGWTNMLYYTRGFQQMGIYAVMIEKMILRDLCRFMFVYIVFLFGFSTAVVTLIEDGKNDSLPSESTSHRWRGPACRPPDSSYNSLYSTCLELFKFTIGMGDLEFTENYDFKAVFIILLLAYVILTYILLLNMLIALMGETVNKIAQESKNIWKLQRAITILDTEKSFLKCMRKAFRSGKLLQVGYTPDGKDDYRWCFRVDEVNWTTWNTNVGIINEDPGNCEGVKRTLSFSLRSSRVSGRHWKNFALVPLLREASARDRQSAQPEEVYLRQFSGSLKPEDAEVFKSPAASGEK
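Fluo-8 calcium influx in TRPV1-expressing cells, kinetic read (ex 480/em 520 nm). Compound added and read 3 min for agonist activity, followed by capsaicin at EC20 final and 2 min further read for enhancement.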
* = called active by the depositor; ? = inconclusive; . = not tested or not shown; [ ] = remark or other dose.

SMILES | Sfp inh | Menin-MLL FL inh | gsp ag | ClpP mod | CtBP-E1A inh | gsp antagonist | TRPV1 PAM
CNc1ccc(OC)cc1-n1cnc(-c2ccc([N+](=O)[O-])cc2)c1 | 5% | 1.2 | -25% | . | -8 | 2% | 7
COc1cc(/C=C/C(=O)OCC(=O)NCc2ccc3c(c2)OCO3)cc(OC)c1OC | . | . | 13% | ? | 12 | -2% | .
CCCCCN(C(=O)CCC(=O)OCc1cccc(F)c1)c1c(N)n(CCCC)c(=O)[nH]c1=O | . | . | 1% | -2.7% | -2 | -4% | 10
Cc1ccc(SCC(=O)OC(C)C(=O)NC2(C#N)CCCCC2)cc1 (centres undefined) | . | . | -4% | 1.0% | -15 | 5% | -6
Cn1nc(C(F)(F)F)c(C#N)c1N1CCN(c2ccc(F)cc2)CC1 | 7% | 1.2 | ? | 14µM* | 4 | -5% | 15
CC1(C)C[C@@H](O)CC2(C1)C[C@]1(C)CC(O)[C@H]2C(C)(C)C1 (some centres undefined) | . | . | 2% | 0.4% | 2 | 2% | .
CCOc1ccccc1N(CC(=O)NC1CCCC1)C(=O)CCCC(=O)Nc1ccccn1 | 1% | -4.6 | 20% | 0.7% | 1 | 3% | -9
CCOC(=O)C1CCCN(C(=O)Nc2c(-c3ccccc3)noc2C)C1 (centres undefined) | 6% | 3.0 | -1%[15.4 µM] | 0.4% | 0 | -4% | -6
N#CCCN(C(=O)COC(=O)C1CCN(S(=O)(=O)c2ccc3c(c2)OCCO3)CC1)c1ccccc1 | . | . | 19% | 1.1% | 1 | 0% | 3
CCOC(=O)C1CCN(C(=O)c2cc(OCC)c(OCC)c(OCC)c2)CC1 | 8% | 1.3 | -29% | -1.8% | 7 | 5% | 3
CSc1ncccc1C(=O)N1CCCC(Nc2ccc(C)c(C)c2)C1 (centres undefined) | 13% | . | -15% | -2.7% | -10 | 6% | 4
O=C(CNC(=O)c1ccc(Cl)cc1Cl)NCCCn1ccnc1 | -7% | 5.3 | -25% | 0.6% | 1 | -3% | -6
C=CCn1c(CCNC(=O)c2ccccc2F)nnc1SCC(=O)Nc1ccccc1F | 8% | . | -35%[inhibitor] | -8.8% | -5 | 1% | 0
CCN(CC)CCN1C(=O)c2oc3ccccc3c(=O)c2C1c1ccc(C)cc1 (centres undefined) | 14% | -0.4 | -21% | -5.4% | -7 | -2% | 22
COc1cc(NC2=CC(=O)CC(C)(C)C2)cc(OC)c1 | 11% | 3.9 | -2% | -2.0% | 6 | 6% | -10
Cc1cccc(NC(=O)Cn2c(=O)n(Cc3ccccc3)c(=O)c3c(C)c(C)sc32)c1 | ? | -0.2 | 23% | -3.3% | 7 | ? | 8
CCCCNC(=O)CSc1nc2ccc(Nc3nc(N4CCOCC4)nc(N4CCOCC4)n3)cc2s1 | ? | 0.5 | 2% | 0.9% | . | -5% | 5
CCOC(=O)c1c(/N=C/c2cc(C)ccc2O)sc2c1CCN(C)C2 | 1% | 2.3 | -11%[15.4 µM] | -0.9% | 3 | 6% | 6
CCCCCCc1nc2nc(Cl)c(Cl)nc2[nH]1 | . | . | -19% | -13% | -3 | . | .
CCC(CC)CN1C(Nc2ccccc2)=NC[C@@H]1C | 10% | -0.1 | -1% | 1.6% | 3 | 9% | 7
CN(C)CCCOc1ccc(Cl)cc1Br | -14% | -1.3 | -39%[inhibitor] | -0.1% | 6 | 19% | -3
Cn1cccc1C(=O)NCCc1ccc(Cl)cc1 | 24% | . | 1% | -1.8% | -1 | 1% | -8
COc1ccnc(CN(C)C(=O)C2CCC(=O)N(CCN(C)C)C2)c1 (centres undefined) | 11% | -0.8 | ? | -0.4% | . | 7% | 5
CC(=O)N1CCc2cc(S(=O)(=O)CCC(=O)O)ccc21 | 15% | 0.6 | -4% | 32µM* | 9 | 4% | 0
COC(=O)c1ccc(-n2c(C)cc(C(=O)CSc3ccc(NC(C)=O)cc3)c2C)cc1 | -15% | . | -12% | -0.7% | -14 | -15% | -17
O=C1CN(C(=O)c2c(F)cccc2F)C(c2ccc(F)cc2)c2cc(F)ccc2N1 (centres undefined) | -3% | 0.8 | 6% | 0.6% | 2 | -1% | -29
Cn1nnc(NCc2cc(Br)ccc2OCc2cccs2)n1 | 2% | 2.1 | 8% | -0.9% | 10 | -12% | 1
Cc1cc(C)cc(-n2ncc3c2CCCC3NC(=O)c2cc(C)[nH]n2)c1 (centres undefined) | 5% | . | -44%[inhibitor] | -2.9% | -1 | -15% | 2
COc1cccc(/C=N/NC(=O)c2cc3c(OC)ccc(OC)c3[nH]2)c1O | 12% | 7.4 | -25% | 2.2% | . | -7% | 19
O=c1c(O)c(-c2cccs2)oc2ccccc12 | 7% | ? | ? | -17% | -7 | 6% | 0
C=CCN1CCN(C(=O)c2oc3ccccc3c2C)CC1 | 14% | -3.5 | -3%[15.4 µM] | 0.1% | 0 | -2% | -1
CC(NC(=O)CCC1COc2ccccc2O1)c1ccccc1 (centres undefined) | -1% | 4.1 | -2% | -3.4% | 1 | 7% | -17
O=C(N[C@H](C(=O)O)c1ccccc1)C1CCC(Cn2cnc3ccccc3c2=O)CC1 (some centres undefined) | 2% | 1.9 | -9%[15.4 µM] | . | -17 | 6% | -3
O=C(N/N=C/C(Br)=C/c1ccccc1)c1ccccc1F | -12% | 1.9 | 2%[15.4 µM] | -17% | -13 | 0% | -11
COc1ccc2c(c1OC)C(=O)OC2Nc1ncccc1C (centres undefined) | 12% | 1.5 | -22% | ? | 7 | 3% | -13
O=C(Nc1nnc(CCc2ccccc2)s1)C1CCCO1 (centres undefined) | 13% | -2.5 | 14% | -1.9% | 4 | 15% | 18
Cc1nn(Cc2ccc(Cl)c(Cl)c2)c(C)c1NC(=O)c1cc(CC(C)C)on1 | 10% | -1.3 | 2% | -0.4% | 6 | -12% | -20
CC1CCCN(S(=O)(=O)c2ccc(C(=O)Nc3nnc(-c4ccncc4)o3)cc2)C1 (centres undefined) | 12% | -1.4 | -20%[15.4 µM] | . | -1 | -25% | -22
CCOC(=O)Cn1c(=O)c(C#N)cn(C(C)C)c1=O | 16% | -1.9 | 18% | 0.7% | . | 9% | -5
Cc1cc(CNC(=O)c2ccc(C)c([N+](=O)[O-])c2)c2ccccc2n1 | 20% | 3.7 | 9%[15.4 µM] | . | -7 | 18% | 2

Laid out differently: 4 of the compounds above.
| SMILES | Sfp inh | Menin-MLL FL inh | gsp ag | ClpP mod | CtBP-E1A inh | gsp antagonist | TRPV1 PAM |
| --- | --- | --- | --- | --- | --- | --- | --- |
| Cc1nn(Cc2ccc(Cl)c(Cl)c2)c(C)c1NC(=O)c1cc(CC(C)C)on1 | 10% | -1.3 | 2% | -0.4% | 6 | -12% | -20 |
| CCOC(=O)Cn1c(=O)c(C#N)cn(C(C)C)c1=O | 16% | -1.9 | 18% | 0.7% | . | 9% | -5 |
| COc1ccc2c(c1OC)C(=O)OC2Nc1ncccc1C (centres undefined) | 12% | 1.5 | -22% | ? | 7 | 3% | -13 |
| CC(NC(=O)CCC1COc2ccccc2O1)c1ccccc1 (centres undefined) | -1% | 4.1 | -2% | -3.4% | 1 | 7% | -17 |

Next part.
SMILES | Sfp inh | Menin-MLL FL inh | gsp ag | ClpP mod | CtBP-E1A inh | gsp antagonist | TRPV1 PAM
CC(Cc1c[nH]c2ccccc12)C(=O)O (centres undefined) | 5% | -5.0 | . | -21% | -11 | 7% | ?
CC(CC(=O)NCc1ccc(Cl)cc1)S(=O)(=O)c1ccc2c(c1)NC(=O)CO2 (centres undefined) | 8% | . | -12% | 1.5% | 6 | -2% | -7
COc1ccc(N2CCN(CC(=O)c3ccccc3)CC2)cc1 | -16% | 0.7 | 17% | . | 0 | 2% | 3
CCCCNC(=O)N1CCCC(N(C)CCc2ccc(OC)c(OC)c2)C1 (centres undefined) | 10% | 0.3 | 1% | 0.2% | . | 4% | 4
CCC(C)(C)NC(=O)CN(CC1CCCO1)C(=O)CCC(=O)Nc1nccs1 (centres undefined) | 5% | 0.3 | 6% | ? | 1 | -4%[15.4 µM] | 3
CC(=O)N1C(c2ccccc2)CC(=O)OC1c1ccc2c(c1)OCO2 (centres undefined) | 2% | -5.7 | 0% | 2.1% | -2 | 8% | 2
Cc1cccc(NC(=O)CC2SC(=NC3CCCCC3)NC2=O)c1 (centres undefined) | 9% | 0.6 | -3% | -7.2% | 12 | 9%[15.4 µM] | 5
O=S(=O)(/N=C/c1c(O)ccc2ccccc12)c1ccccc1 | -1% | -5.2 | 5%[15.4 µM] | 1.3% | 2 | 2% | ?
Cc1ccc(N(C(=O)Nc2ccccc2)C2=NCC(C)S2)cc1 (centres undefined) | 10% | -5.1 | 0% | -0.5% | 4 | -1% | 4
CC(=O)NCCC(=O)NCc1ccc(F)cc1 | 14% | 1.8 | 2% | -6.9% | -1 | 7% | 3
COc1ccccc1NC(=O)c1ccccc1NS(=O)(=O)c1cccs1 | 7% | -0.9 | 15% | . | -1 | -10% | 9
Cc1onc(-c2c(F)cccc2Cl)c1C(=O)Nc1cc(S(=O)(=O)N2CCCCC2)ccc1O | . | . | 16% | -3.3% | -2 | ? | .
Cc1nn2cc(-c3cccc(Cl)c3)cnc2c1Cl | 11% | -0.4 | 1%[15.4 µM] | -6.1% | 9 | 0% | ?
CC(=O)NC(C)C(=O)OCC(=O)Nc1ccc(Br)cc1 (centres undefined) | 7% | 0.0 | -14% | -1.7% | 7 | 3% | 1
CCOc1ccccc1CN1CCN(Cc2cc(=O)c3ccccc3[nH]2)CC1CCO (centres undefined) | 11% | -9.0 | 12% | -7.8% | 6 | -15% | 5
CC(C)c1ccc(NC2(C#N)C(=O)Nc3ccccc32)cc1 (centres undefined) | 4% | -2.3 | 11% | 2.7% | -4 | 7% | -11
CC(=O)Nc1nc2ccccc2n1Cc1ccc(Cl)cc1 | 8% | -0.4 | ? | -1.3% | 3 | 3% | -2
CC(=O)Nc1ccc(NC(=O)Cn2c(CC(=O)N3CCCC3)nc3ccccc32)cc1 | 21% | -0.7 | -3% | -1.5% | 0 | 2% | 1
Cc1c(Cl)cccc1NC(=O)COC(=O)CCc1nc2ccccc2n1-c1ccccc1 | -21% | -0.1 | -70%[inhibitor] | 5.9% | 0 | ? | 18

Compound activity (PubChem BioAssay)
